# VACV E9 pol inh – inhibitors of vaccinia virus processive DNA synthesis (E9 polymerase) | normalized absorbance, % (concentration not given with the values) | 46,000 tested, 0.94% active | AID 493162 | in vitro processive DNA synthesis, absorbance read-out; hits give low values; some inactives read as strong as hits;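 active = replicate mean up to 90% and picked by the depositor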;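 note: 100% = median of the test wells of a plate; 100 nL library stock went into each well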
# Active calls of the source: *. These rows are one share of the data; rates above refer to the full screens.
nr	SMILES	VACV E9 pol inh
1	O=c1[nH]c(=O)n(Cc2c(Cl)cccc2Cl)cc1F	101
2	Cc1c(C(=O)O)cccc1C(=O)c1ccccc1	100
3	Cn1nnnc1SCC1=C(C(=O)O)N2C(=O)C(NC(=O)C(OC=O)c3ccccc3)C2SC1 (stereo unspecified)	99
4	CC(C)(C)OC(=O)/C=C/c1c(Cl)nc2sccn12	95
5	O=C(NC(CO)C(=O)O)c1cncc(O)c1 (stereo unspecified)	99
6	O=C(c1ccc(Cl)cc1Cl)N1CCN(Cc2ccccc2)CC1	133
7	O=c1c(F)cn(CC2CC(c3ccccc3)=NO2)c(=O)n1CC1CC(c2ccccc2)=NO1 (stereo unspecified)	104
8	COC(=O)c1ccc2c(c1)N(C)S(=O)(=O)c1cnc(SC)nc1-2	81
9	COc1cccc(-c2cc(C(=O)NC3CC3)[nH]n2)c1	105
10	O=C(Cn1c(=O)c2cccn2c2ccccc21)NC1CCCc2ccccc21 (stereo unspecified)	91
11	Cc1cccc(CS(=O)(=O)c2ncn[nH]2)c1	92
12	Cc1ccc(S(=O)(=O)N2CCCCC2)cc1C	99
13	O=C(c1ccc(CS(=O)(=O)c2c(Cl)cccc2Cl)o1)N1CCN(Cc2ccccc2)CC1	99
14	c1ccc(Nc2nc3nonc3nc2Nc2ccccc2)cc1	100
15	CCOc1ccc(S(=O)(=O)N(CC(=O)NC2CC2)c2ccccc2)cc1	100
16	COc1ccc(OCC(O)Cn2nc(C)cc2C)cc1 (stereo unspecified)	101
17	CN1CCC(OC(=O)c2cc3ccccc3o2)CC1	87
18	Cn1cc(CC(=O)NCCCN2CCOCC2)c2ccccc21	103
19	FC(F)(F)c1cccc(-n2cnnn2)c1	92
20	Cc1ccc2[nH]c(=O)c(-[n+]3ccccc3)c(-c3ccccc3)c2c1	100
21	O=c1cc(-c2ccccc2)oc2c(O)c(O)ccc12	97
22	Cc1nc2sccn2c1-c1csc(Nc2ccc(C(=O)O)cc2)n1	100
23	CN(C)c1n[nH]c(N(C)C)n1	116
24	N#Cc1cc2c(nc1S(=O)Cc1ccc(Cl)cc1)CCCC2 (stereo unspecified)	100
25	O=C1Nc2cc(C(=O)N3CCc4ccccc4C3)ccc2Sc2ccccc21	97
26	COc1ccc2c(c1)sc(=NC(=O)CSC(C)=O)n2C	100
27	Cc1nc2ccc(NC(=O)COc3ccc(Cl)cc3)cc2s1	96
28	COc1cc2c(cc1OC)C(C)N(C(=O)CN1C(=O)CCc3ccccc31)CC2 (stereo unspecified)	104
29	Cn1c(=NC(=O)Cc2cccs2)sc2cc(F)ccc21	99
30	Cc1nn(-c2ccccc2)nc1CNS(=O)(=O)c1c(C)noc1C	100
31	Cc1cc[n+](CCC(=O)O)c2ccccc12	100
32	O=C1NC(=S)S/C1=C\c1c(NCc2ccco2)nc2ccccn2c1=O	100
33	CCOC(=O)C1CCC(C(=O)OCC)N1C(=O)Nc1ccc(Cl)cc1 (stereo unspecified)	94
34	Clc1ccc(-n2ncnc2-c2ccc3c(c2)OCO3)cc1	99
35	N#C/C(=C(/O)C1CC1)c1nc2ccccc2s1	105
36	COC(=O)C1(C)NC2(CCCCC2)Cc2ccccc21 (stereo unspecified)	101
37	Cc1ccc(C(=O)Nc2ccc3c(c2)OCO3)cc1	99
38	CCOC(=O)C1(c2ccccc2)CCN(C(=O)c2ccccc2O)CC1	100
39	N#Cc1c(-c2ccccc2)c(-c2ccccc2)nn(CC(=O)NN)c1=O	104
40	Cc1ccc(OCc2nn(C)c3ccccc23)cc1	100
41	CN(Cc1ccccc1)C(=O)CCCn1c(=O)c2cccn2c2cccnc21	101
42	Cc1cc(N2CCCC2)nc2ccc(NC(=S)NCCN3CCOCC3)cc12	92
43	CCC(Sc1nc2c(c(=O)n1-c1ccccc1)SCC2)C(=O)OC (stereo unspecified)	93
44	CN1C(=O)CN=C(c2ccccc2F)c2cc([N+](=O)[O-])ccc21	100
45	O=C(NCCCn1ccnc1)c1noc2c1CCCC2	102
46	CN1CCN(c2ccccc2NC(=O)Cc2cn(C)c3ccccc23)CC1	101
47	c1ccc(NC2=NCCS2)cc1	100
48	O=C(Cn1nnc(N2CCOCC2)n1)c1ccccc1	95
49	Cc1cc(C)n(-c2nc(-c3ccccc3)nc3c2COC(C)(C)C3)n1	110
50	Cn1c(O)c(/C=N/N(c2ccccc2)c2ccccc2)c2ccccc21	104

# Reformatted with each value named: entries from further up.
45) O=C(NCCCn1ccnc1)c1noc2c1CCCC2
  VACV E9 pol inh: 102
36) COC(=O)C1(C)NC2(CCCCC2)Cc2ccccc21 (stereo unspecified)
  VACV E9 pol inh: 101
47) c1ccc(NC2=NCCS2)cc1
  VACV E9 pol inh: 100

# The list goes on:
nr	SMILES	VACV E9 pol inh
51	CC1CCCCC1N1CCC(CNC(=S)Nc2cccc(Cl)c2)C1 (stereo unspecified)	107
52	O=C(c1cc2nc3c(c(C(F)(F)F)n2n1)CCc1ccccc1-3)N1CCCC1	100
53	Cn1cccc1Cc1nnc(SCC(=O)NC2CCCCC2)n1CCc1ccccc1	91
54	Cc1ccc(S(=O)(=O)NC2=NCN(c3ccc(Cl)cc3)CN2)cc1	100
55	CCCc1ccc(S(=O)(=O)Nc2ccc(C)c(NS(C)(=O)=O)c2)cc1	109
56	COc1cccc(C(=O)Nc2c3c(nn2-c2ccc(F)cc2)CSC3)c1OC	100
57	Cc1ccc(-n2sc3ccccc3c2=O)cc1	87
58	O=C(c1cnn(C(=S)Nc2ccccc2)c1)c1cc(Cl)ccc1O	85
59	O=C(CCSc1nnc2ccccn12)Nc1ccc(F)cc1	100
60	CCc1ccc(NC(=O)N(Cc2ccco2)C2CCN(Cc3ccccc3)CC2)cc1	103
61	O=C(COC(=O)c1ccc(I)cc1)NC1CCCCC1	103
62	Cc1ccc(CNC(=O)CSc2nc3ccccc3c(=O)n2-c2ccccc2)cc1	99
63	O=C1c2ccccc2C(=O)C1c1ccncc1	93
64	FC(F)(F)c1cc(-c2ccco2)nc(-n2cccn2)n1	93
65	CCSc1nc2ccccc2n1C(=O)c1ccc(Cl)cc1	98
66	CCOC(=O)N1CCC(NS(=O)(=O)c2cccs2)CC1	97
67	CCN1C(=O)CC(C(=O)Nc2ccccc2)SC1=Nc1ccccc1 (stereo unspecified)	101
68	CC1CCN(CCCNC(=O)C2CC(=O)N(CCc3ccccc3)C2)CC1 (stereo unspecified)	106
69	N#Cc1c2ncnc(-c3ccc(Cl)cc3)c2n2ccccc12	109
70	O=S1(=O)CCN(C2CCCCCC2)CC1	98
71	CN(Cc1ccccc1)S(=O)(=O)c1ccc(NC(=O)c2nc(S(C)(=O)=O)ncc2Cl)cc1	95
72	CC(NC(=O)c1cccs1)C(c1cccs1)N1CCOCC1 (stereo unspecified)	101
73	CCc1nn(C)c2c(=O)c(=O)c2n(C)[nH]1	95
74	O=C(N(c1ccccc1)C1C=CS(=O)(=O)C1)C12CC3CC(CC(C3)C1)C2 (stereo unspecified)	99
75	CC(C)CCSc1nc(N)c2c3c(sc2n1)CCCC3C (stereo unspecified)	99
76	COc1ccc2c(c1)c(OC)[n+](C)c1c3cc4c(cc3ccc21)OCO4	77*
77	O=C(Nc1ccccc1)OC(CN1CCCCC1)C(F)(F)F (stereo unspecified)	115
78	Cc1c(C)c2ccc(OCC(N)=O)cc2oc1=O	96
79	Cc1ccc(NC(=O)c2c(-n3c(C)ccc3C)sc3c2CCCC3)cc1	100
80	Cc1cc(=O)[nH]c(SCC2COC3(CCCCC3)O2)n1 (stereo unspecified)	100
81	CC(C)Nc1cc(Br)c2noc3c2c1C(=O)c1ccccc1-3	100
82	CCN(CC)c1ccc(NC(=O)COC(=O)Cc2ccc(Cl)cc2)cc1	100
83	O=C(c1ccccc1)c1cc(Br)ccc1NC(=O)C1CC1	100
84	Cc1cc(C)c2ccc(NN)nc2c1O	97
85	O=C(CSc1ncnc2c1sc1ccccc12)NC1CCCCC1	98
86	O=C(O)c1cccnc1SCC(=O)N1c2ccccc2CCc2ccccc21	102
87	Cc1ccc(C(O)COC2=NCNc3cc(Cl)ccc32)cc1 (stereo unspecified)	96
88	Cc1ccccc1-c1nc(CSc2nc3c(c(=O)[nH]2)CCC3)c(C)o1	98
89	CC(OC(=O)CCc1c[nH]c2ccccc12)C(=O)c1ccccc1 (stereo unspecified)	101
90	Cc1noc(/C=C/N(C)C)c1S(=O)(=O)NCCN1CCC(Cc2ccccc2)CC1	102
91	N#CCC(=O)NCc1ccccn1	90
92	CNC(=O)c1cccc(Oc2cccc(Cl)n2)c1	100
93	O=C(CSc1ccc(Br)cc1)N1CCN(C(=O)c2ccco2)CC1	98
94	COc1ccccc1NC(=O)c1cc(Cl)nnc1Cl	103
95	Cc1cccc(-n2nc3c(c2NC(=O)C2CC2)CSC3)c1	98
96	CCCCCCCCCCCCCCCC(=O)OC[C@H](COP(=O)([O-])OCC[N+](C)(C)C)OC(C)=O	100
97	C[C@H]1O[C@@H](O[C@H]2[C@@H](O)C[C@H](O[C@H]3[C@@H](O)C[C@H](O[C@H]4CC[C@]5(C)C6CC[C@]7(C)[C@@H](C8=CC(=O)OC8)CC[C@]7(O)C6CC[C@@H]5C4)O[C@@H]3C)O[C@@H]2C)C[C@H](O)[C@@H]1O (stereo partly specified)	93
98	COCC(=O)Oc1c(Sc2ccc(C)cc2)c(C)nn1-c1ccccc1	100
99	O=C(Cc1ccccc1)Nc1ccc(S(=O)(=O)N2CCCCC2)cc1	112
100	CCOC(=O)c1cnc2cc(C(F)(F)F)ccc2c1N(C)Cc1ccccc1	94

# Numbers 95–100 from above:
nr	SMILES	VACV E9 pol inh
95	Cc1cccc(-n2nc3c(c2NC(=O)C2CC2)CSC3)c1	98
96	CCCCCCCCCCCCCCCC(=O)OC[C@H](COP(=O)([O-])OCC[N+](C)(C)C)OC(C)=O	100
97	C[C@H]1O[C@@H](O[C@H]2[C@@H](O)C[C@H](O[C@H]3[C@@H](O)C[C@H](O[C@H]4CC[C@]5(C)C6CC[C@]7(C)[C@@H](C8=CC(=O)OC8)CC[C@]7(O)C6CC[C@@H]5C4)O[C@@H]3C)O[C@@H]2C)C[C@H](O)[C@@H]1O (stereo partly specified)	93
98	COCC(=O)Oc1c(Sc2ccc(C)cc2)c(C)nn1-c1ccccc1	100
99	O=C(Cc1ccccc1)Nc1ccc(S(=O)(=O)N2CCCCC2)cc1	112
100	CCOC(=O)c1cnc2cc(C(F)(F)F)ccc2c1N(C)Cc1ccccc1	94

# (cont.)
nr	SMILES	VACV E9 pol inh
101	CCCOC(=O)c1ccc(NC(=O)C(F)(F)F)cc1	101
102	Cn1c(=O)n(C)c2cc(/C=C3/NC(=O)NC3=O)ccc21	100
103	COc1ccc(Br)cc1CNc1ccccc1	105
104	c1csc(-c2cn3c(n2)SCC3)c1	97
105	Cc1sc2nc(Nc3ccc(S(N)(=O)=O)cc3)sc(=O)c2c1C	86
106	COC(=O)COc1nsnc1N1CCOCC1	98
107	CCn1c(=O)cc(SCC(=O)NCc2cccs2)c2ccccc21	101
108	CS(=O)(=O)c1ccc2nc(NC(=O)c3cccc(C(F)(F)F)c3)sc2c1	100
109	COC1OC(COC(C)=O)C(OC(C)=O)C(C#N)(C#N)C1OC(C)=O (stereo unspecified)	100
110	Cc1nc(-c2ccc(S(=O)(=O)NCC3CCN(C(=O)OC(C)(C)C)CC3)s2)cs1	90
111	CCC1(c2ccc(N)cc2)CCC(=O)NC1=O (stereo unspecified)	100
112	CCCCc1ccc(NC(=O)N2CCN(c3cc(C)nc4ccccc34)CC2)c(C)c1	104
113	O=C(CCCn1c(=O)c2cccn2c2ccccc21)NC1CCCC1	90
114	CC(C)(C)c1nc(N=C(N)N)sc1Br	101
115	Cc1cc(C(C)(C)C)c(O)c(C)c1CC1=NCCN1	100
116	O=C(O)c1ccc(-c2ccc(/C=C3\Sc4ccccc4C3=O)o2)cc1	100
117	NC(=O)COC(=O)CC12CC3CC(CC(Br)(C3)C1)C2	95
118	COC(=O)C(CC(C)C)NS(=O)(=O)c1ccc(-c2nnc(SC)n2C)s1 (stereo unspecified)	96
119	COc1ccc(NC(=O)Nc2c(SC)nsc2SC)cc1	100
120	CC(C)c1ccc(Nc2c(-c3ccccc3)nc3cnccn23)cc1	105
121	O=S1(=O)CCC(N=Cc2ccccc2Cl)C1 (stereo unspecified)	100
122	CC1CCCC(C)N1C(=O)COc1ccc(Br)cc1 (stereo unspecified)	98
123	O=C(/C=C/c1ccc(F)cc1)NC(=S)Nc1ccccc1O	100
124	Cc1ccc(N2C(=O)CC(Nc3ccc(N4CCOCC4)cc3)C2=O)c(C)c1 (stereo unspecified)	96
125	CC(C)Cn1c(=S)[nH]c2ccccc21	99
126	O=C1C=C2C(=CCOC2O)O1 (stereo unspecified)	100
127	O=S(=O)(Cc1nc(CSc2ccccn2)cs1)c1ccc(Cl)cc1	101
128	Nc1c(S(=O)(=O)c2ccccc2)nnn1-c1ccc(OC(F)(F)F)cc1	94
129	CCOc1ccc(CNC(=O)c2cc(=O)[nH]c3ccccc23)cc1	106
130	CSc1ccccc1Sc1cc(C(=O)NCc2ccco2)c2ccccc2n1	111
131	CCOc1cccc(S(=O)(=O)N=C2C=C(C(C)(C)C)C(=O)C(C(C)(C)C)=C2)c1	100
132	c1ccc(CCSc2nnc3sc4ccccc4n23)cc1	100
133	O=C(O)c1ccc(CS(=O)(=O)c2ccccc2)o1	19*
134	COc1cccc(C(=O)c2sc3nsc(SCc4ccccc4)c3c2N)c1	96
135	O=C(Cc1ccccc1)c1cccs1	95
136	Cc1cccc(CN2CCC(CNC(=O)c3cc4cc5ccc(C)cc5nc4o3)CC2)c1	97
137	CC1CCC(C(C)C)C(OC(=O)C[n+]2ccsc2N)C1 (stereo unspecified)	104
138	Cc1cc(C(=O)N2CCN(C3c4ccccc4-c4ccccc43)CC2)c(C)o1	96
139	N#CC1=C(SCC(=O)NCc2ccccc2)NC(=O)CC1c1ccccc1F (stereo unspecified)	102
140	O=C(c1ccc2ccccc2n1)N1CCCCC1	95
141	O=C(O)C1C2CCC(O2)C1C(=O)N1CCN(C/C=C/c2ccccc2)CC1 (stereo unspecified)	100
142	O=C(Nc1ccc(Br)cc1)c1cccs1	94
143	CC1CC1C(=O)OCC(=O)Nc1ccc(F)cc1 (stereo unspecified)	103
144	CCN(CC)CCNc1ccc(CO)c2sc3ccccc3c(=O)c12	60*
145	Cc1ccccc1-c1nnc(NC(=O)c2ccccc2Cl)s1	99

# Source: PubChem
